Screens (PubChem BioAssay)
HNF4A DNA FP: change in binding of human HNF4 alpha to DNA | AID 1224865 | 360,000 tested, 0.3% active | activity change, % at 10 µM | HNF4a-FITC DNA binding, fluorescence polarization, 1 h | P41235; in the data active = activity change above about 30%, passing the limit was not always enough;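 note: controls were the assay level and a saturating level of protein; the project sought stronger binding though the title names inhibitors; some compounds called inactive have numbers as strong as hits; positive values seem to mean higher polarization but the record does not say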
Target sequence (P41235 whole entry, looked up): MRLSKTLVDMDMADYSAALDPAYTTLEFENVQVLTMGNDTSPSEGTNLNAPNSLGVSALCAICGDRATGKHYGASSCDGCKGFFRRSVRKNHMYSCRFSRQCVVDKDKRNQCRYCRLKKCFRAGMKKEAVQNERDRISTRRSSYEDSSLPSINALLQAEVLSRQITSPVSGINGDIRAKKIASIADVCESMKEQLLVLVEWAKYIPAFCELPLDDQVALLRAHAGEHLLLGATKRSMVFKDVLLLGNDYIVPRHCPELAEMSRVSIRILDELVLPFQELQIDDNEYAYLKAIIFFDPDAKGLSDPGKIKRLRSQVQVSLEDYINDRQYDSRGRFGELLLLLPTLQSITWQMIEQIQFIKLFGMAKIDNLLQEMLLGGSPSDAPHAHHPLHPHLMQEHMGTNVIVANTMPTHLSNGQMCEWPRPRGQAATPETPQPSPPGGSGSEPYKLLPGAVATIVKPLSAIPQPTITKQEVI
E coli growth: E. coli growth inhibition; AID 1053175; Escherichia coli growth, OD600, 23 h; stronger effect = lower value; OD600 absorbance (no concentration beside the values); 330,000 tested, 0.21% active;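 active = OD600 absorbance below the run mean of sample wells minus 3.6 SD, in any replicate, cut at about 0.56 in these data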;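 note: stock transfer was 300 nL into about 60 µL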
FGF22 binding: FGF22 (human) thermal shift binding; recombinant FGF22 thermal shift, SYPRO orange fluorescence; percent of sucrose octasulfate shift, DMSO zero; Q9HCT0; calls only at 9.99 µM; 340,000 tested, 1.5% active; AID 651658;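 active = melting point raised past a set limit in the mean and every replicate; three in four hits are not shown here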
Target sequence (Q9HCT0 whole entry, looked up): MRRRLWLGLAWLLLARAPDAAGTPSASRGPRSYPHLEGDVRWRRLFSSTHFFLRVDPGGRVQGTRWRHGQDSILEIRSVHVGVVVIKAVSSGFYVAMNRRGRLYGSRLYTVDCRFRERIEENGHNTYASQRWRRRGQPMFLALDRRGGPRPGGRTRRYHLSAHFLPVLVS
rRNA inh HTS: selective bacterial rRNA inhibition in E. coli. 350,000 tested, 1.6% active. GFP signal change (wild-type ribosome), % (concentration not given with the values). AID 720706. E. coli WT GFP vs humanized-ribosome RFP mutants, fluorescence, 24 h; stronger effect = lower value; DMSO median 0, no signal -100;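 active = significant combined selectivity score with lowered wild-type GFP, culture density cut under 30%, mutant RFP and density less affected; inactive = any of these conditions unmet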; note: one replicate is shown; some compounds called inactive have numbers as strong as hits
ALR H2O2 inh: blocks human ALR sulfhydryl oxidase activity; P55789; inhibition, % (concentration not given with the values); purified ALR, DTT oxidation, H2O2 HRP-luminol luminescence; 290,000 tested, 3.8% active;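 active = mean and each replicate at 75% or more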;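 note: stock transfer was 7.5 nL into about 7.5 µL; 0% = neutral wells and 100% = wells with inactivated enzyme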
Target sequence (P55789 whole entry, looked up): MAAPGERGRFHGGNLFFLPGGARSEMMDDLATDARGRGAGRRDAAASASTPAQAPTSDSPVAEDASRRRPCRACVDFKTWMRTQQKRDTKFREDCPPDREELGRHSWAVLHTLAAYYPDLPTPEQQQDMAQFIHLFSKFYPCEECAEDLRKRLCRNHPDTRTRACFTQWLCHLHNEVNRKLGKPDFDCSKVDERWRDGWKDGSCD
B2AR ag: activates human beta-2 adrenergic receptor causing internalization. P07550. Am2.2-beta2AR cells, FAP receptor internalization, flow cytometry; reference of the scale not given here. response, % (concentration not given with the values). 340,000 tested, 0.43% active. AID 504454;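 active = response above a set limit, near 3 SD of response in nonfluorescent compounds, cut at about 42% in these data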;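 note: stock transfer was 100 nL into about 11 µL; a reference agonist was the positive control; negative values mostly stem from fluorescent compounds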
UCH37 DUB inh: inhibitors of human deubiquitinating enzyme UCH37 | Q9Y5K5 | purified proteasome/UCH37, Ub-AMC cleavage fluorescence | inhibition, % (concentration not given with the values) | 330,000 tested, 0.33% active | AID 588478;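 active = mean of two replicates above 20%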;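 note: 0% = compound-free wells with enzyme and 100% = wells lacking proteasome; stock transfer was 100 nL into about 20 µL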
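system = Proteasome-associated human UCH37 deubiquitinase | amount = 0.15 nM proteasome as dispensed | medium = pH 7.4 Tris-HCl (50 mM) with ovalbumin, ATP-MgCl2, DTT | incubation = 30 min preincubation with enzyme, 25 min cleavage at room temperature | detection = AMC fluorescence 355/460 nm | read-out basis = percent inhibition | controls = no-proteasome and no-compound wells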
rRNA inh HTS OD600: recorded beside rRNA inh HTS, whose call it bears; OD600 change, %; measured here: OD600 growth;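 optical density of the mix in the first replicate; 0 = DMSO median and -100 = no signal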
rRNA inh HTS RFP: also measured in rRNA inh HTS; calls as there; RFP signal change, %; measured here: RFP humanized mutant strains;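 first replicate; 0 = DMSO median and -100 = no signal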
* = called active by the depositor; i = inactive; · = no result given; & = joins results of further samples. A portion of the library; rates above refer to the full screens.

SMILES	HNF4A DNA FP	E coli growth	FGF22 binding	rRNA inh HTS	rRNA inh HTS OD600	rRNA inh HTS RFP	ALR H2O2 inh	B2AR ag	UCH37 DUB inh
Oc1ccc(Cl)cc1CNCc1ccc(F)cc1	-1.1	0.68	i	5	1	8.9	·	-6	-1.1
CC(C)c1ccc(/C=N/Nc2cc(N3CCOCC3)nc(N3CCOCC3)n2)cc1	1.1	·	·	·	·	·	6	11	·
CC(=O)C1CN(S(=O)(=O)c2ccc(C)cc2)C(c2ccccc2)CC1C (stereo unspecified)	-0.4	·	i	-5	-24	-2.8	·	·	·
Cc1cc(C)cc(C(=O)Nc2ccc(N3CCCC3)cc2)c1	4.2	0.69	i	-30*	6.8*	1.7*	4	14	-0.8
O=C(COC(=O)c1cccnc1Cl)c1ccc(Cl)cc1Cl	1.7	0.74	·	·	·	·	-22	2	-1.1
Fc1ccc(-c2ccc(CNCc3ccccn3)o2)cc1Cl	0.9	0.62	i	-27	-37	-5.0	-3	-6	4.8
CCCn1nc(C(=O)OCC(=O)c2ccccc2)c2ccccc2c1=O	-0.4	0.7	i	-7	-12	-3.7	-2	2	3.8
CC(C)(C)OC(=O)C[C@H]1C/C=C\C[C@@H](CC(=O)N(CCO)Cc2ccccc2)C(=O)NC[C@H](c2ccccc2)OC1=O	5.1	·	i	-10	-8	2.2	1	-1	-0.7
O=c1[nH]cc(NCc2ccccc2)c(=O)[nH]1	0.8	·	i	12	20	0.2	·	-8	·
CCOC(=O)C1=C(C)NC(=O)NC1C (stereo unspecified)	3.0	0.67	·	·	·	·	-1	-1	1.3
COc1cc(/C=N/NC(=O)CC2(C)OCCCO2)ccc1OCc1ccc(Cl)cc1Cl	1.4	·	·	·	·	·	5	9	·
COC(=O)N(C)C[C@@H]1OCc2cnnn2CCCC(=O)N([C@H](C)CO)C[C@H]1C	-2.7	·	i	-1&2	1&2	4.1&-0.1	·	·	·
CCN1CCN(CCNC(=O)CSCc2nc(-c3ccc(OC)c(OC)c3)oc2C)CC1	1.8	0.71	·	·	·	·	99*	2	0.6
Cc1ccccc1Nc1cc(C)c2c(O)cccc2n1	0.2	0.67	i	-4	-31	-3.2	29	0	2.4
CC(C)OCC1CO1 (stereo unspecified)	-1.6	0.66	i	-2	4	-1.2	-17	-2	0.7
COc1ccccc1/C=C/C(=O)c1ccc(NC(C)=O)cc1	-1.2	0.68	i	-28	-30	-5.6	7	-8	1.1
O=C(CCc1ccccc1)NNC(=O)COc1ccccc1	6.6	0.66	·	·	·	·	-3	7	1.7
O=C(c1cccs1)N1CCC2(O)CCCCC2C1c1ccc(F)cc1 (stereo unspecified)	2.5	0.7	·	·	·	·	0	0	3.1
CC1C(=O)N2CCCc3cc(S(=O)(=O)NCCc4ccccc4)cc1c32 (stereo unspecified)	-1.1	0.69	i	-7	-15	3.0	-5	-2	0.4
Cc1ccc(S(=O)(=O)NCc2ccc(C(=O)N3CCN(Cc4ccccc4)CC3)cc2)cc1	-0.8	0.69	·	·	·	·	-3	3	3.9

Compounds listed so far that contain a carbonyl joined to an NH by a bond outside any ring:
SMILES	HNF4A DNA FP	E coli growth	FGF22 binding	rRNA inh HTS	rRNA inh HTS OD600	rRNA inh HTS RFP	ALR H2O2 inh	B2AR ag	UCH37 DUB inh
Cc1cc(C)cc(C(=O)Nc2ccc(N3CCCC3)cc2)c1	4.2	0.69	i	-30*	6.8*	1.7*	4	14	-0.8
COc1cc(/C=N/NC(=O)CC2(C)OCCCO2)ccc1OCc1ccc(Cl)cc1Cl	1.4	·	·	·	·	·	5	9	·
CCN1CCN(CCNC(=O)CSCc2nc(-c3ccc(OC)c(OC)c3)oc2C)CC1	1.8	0.71	·	·	·	·	99*	2	0.6
COc1ccccc1/C=C/C(=O)c1ccc(NC(C)=O)cc1	-1.2	0.68	i	-28	-30	-5.6	7	-8	1.1
O=C(CCc1ccccc1)NNC(=O)COc1ccccc1	6.6	0.66	·	·	·	·	-3	7	1.7

Next section:
SMILES	HNF4A DNA FP	E coli growth	FGF22 binding	rRNA inh HTS	rRNA inh HTS OD600	rRNA inh HTS RFP	ALR H2O2 inh	B2AR ag	UCH37 DUB inh
COc1ccc(NS(=O)(=O)c2ccc3c(c2)NC(=O)CO3)cc1	1.2	0.64	i	10	-16	7.2	3	4	-0.4
CCc1ccc(C(C)NC(=O)c2ccc(F)cc2)cc1 (stereo unspecified)	-3.8	0.73	·	·	·	·	-10	3	6.0
COc1ccc(CN(C)C(=O)Cn2ccc(NC(=O)OCc3ccccc3)nc2=O)cc1OC	2.3	0.78	i	0	2	3.3	-6	-3	2.7
Cn1c(=O)c2c(SCC(=O)N3CCCC3)nc(CC(C)(C)C)nc2n(C)c1=O	2.5	0.7	i	20	12	2.0	-5	-20	2.0
CCOCCCNC(=O)c1ccc(NC(=O)C2=CSCCO2)cc1	-4.8	0.67	i	7	7	2.5	-3	-4	6.7
CC(C)CCNc1nc(-c2ccco2)c2c(c1C#N)CCCC2	5.0	0.72	·	·	·	·	2	8	-442
CN(c1ccccc1C(=O)N1CCN(Cc2ccc3c(c2)OCO3)CC1)S(C)(=O)=O	-1.7	0.7	i	12	2	0.6	0	0	5.5
CCCOC1CCCN(Cc2cn(C)nc2-c2ccccc2F)C1 (stereo unspecified)	1.7	0.72	i	9	3	-1.0	-9	-2	-3.2
CCOC(=O)c1cc(NC(=O)c2ccc(OC)cc2)c(=O)oc1-c1ccccc1	6.7	0.71	·	·	·	·	0	7	1.5
COc1ccccc1C(=O)NCCNc1ccc([N+](=O)[O-])cc1Cl	-1.3	0.66	i	0	11	-5.4	-8	-11	2.5
CCC(CO)Oc1cc(NC(=O)Cc2ccccc2)c2ncn(C(C)C)c2c1 (stereo unspecified)	3.3	0.67	i	2	-1	-2.4	-14	3	5.1
CN(C)c1ccc(/C=C(/C#N)C(=O)NCc2ccccc2)o1	178	0.72	·	·	·	·	38	-20	8.9
Cc1ccccc1NC(=O)Cn1c(O)c(N=NC(=O)c2ccccc2O)c2ccccc21	-12	0.75	·	·	·	·	0	-4	7.0
O=C(O)C12C[C@H]3C[C@@H](C1)CC(n1ncc(N4CCN(c5ccccc5)CC4)c(Cl)c1=O)(C3)C2	1.5	0.67	·	·	·	·	98*	2	15
CCn1cc(CN2CCN(Cc3ccc(C)o3)C(CCO)C2)c2ccccc21 (stereo unspecified)	3.7	0.71	i	3	-2	1.3	33	-7	1.8
COc1ccc(-c2nnc(N(C)C(=O)C3CCOC3)s2)cc1 (stereo unspecified)	-0.3	0.73	·	·	·	·	-20	-1	-1.6
CCN(CC)S(=O)(=O)c1ccc(N2CCCC2)c(NC(=O)CSCc2c(C)noc2C)c1	2.4	·	i	11	12	6.4	·	·	·
COc1cc(/C=N/Nc2nnc3c(n2)[nH]c2ccccc23)ccc1O	-2.0	·	i	1	12	10	46	-5	·
N#Cc1ccc(S(=O)(=O)N2CCC(C(=O)Nc3cccc(C(=O)NC4CC4)c3)CC2)cc1	-0.5	0.68	i	2	1	2.1	2	-2	3.1
COc1ccc(-c2cc(-c3ccccc3)no2)cc1	2.5	0.72	i	15	21	-1.7	0	-1	0.6
CCNC(=O)NC(=O)COC(=O)CCCSc1nc2ccccc2s1	-3.6	0.71	i	·	·	·	·	2	3.2
Cc1ccc(NC(=O)c2ccc3c(c2)OCO3)cc1Cl	-1.8	0.69	i	-3	5	-1.0	1	8	1.5
CCN1CC2=C(OC(N)=C(C#N)C2c2cccs2)/C(=C\c2cccs2)C1 (stereo unspecified)	5.2	0.64	i	10	-4	8.5	2	23	6.1
c1ccc(C2[C@H]3CN(Cc4cccnc4)[C@H](c4ccccc4)C34CC2(c2ccccc2)C4)cc1 (stereo partly specified)	3.5	·	i	-8	-7	9.9	-5	4	1.4
CCc1ccc(NS(=O)(=O)c2ccc3[nH]cc(C(=O)N4CCc5ccccc54)c(=O)c3c2)cc1	0.5	0.69	·	·	·	·	-1	18	5.8
O=C(/C=C/c1ccco1)NCCc1ccccc1	-3.0	0.65	i	5	14	3.4	6	-1	3.8
CC(C)c1cc(CNC(=O)C2CCC(=O)N(Cc3ccccc3F)C2)on1 (stereo unspecified)	-6.7	0.7	i	6	6	1.2	-22	-7	5.3
CN(CCc1ccccc1)C(=O)c1ccc(NC(=O)Cc2ccc(NC(=O)C3CCCN(C(=O)C4CCC4)C3)cc2)cc1 (stereo unspecified)	1.2	·	i	-1	-4	6.1	·	-10	·
CC(C)=NNC(=O)c1c(O)c2ccccc2[nH]c1=O	-3.5	0.67	i	-38	-37	-7.6	·	12	3.1
CCCCNC(=O)c1nc(-c2cnc(C)cn2)oc1-c1ccc(Cl)cc1	3.2	·	i	5	8	3.3	·	·	·
CC1(C)CC(CC(=O)O)(c2ccc(Cl)cc2)CCO1 (stereo unspecified)	-0.8	0.73	·	·	·	·	-3	2	-1.1
CC1(C)Cc2c(sc(NC(=O)c3ccc(S(=O)(=O)N4CCCCCC4)cc3)c2C#N)C(C)(C)N1	-0.1	0.63	i	-30	-25	1.8	-11	1	-7.5
COc1ccc(/C=C(\NC(=O)c2ccccc2)C(=O)N/N=C/c2ccncc2)cc1	-0.4	·	·	3	2	-2.8	·	-6	·
Brc1ccc(-c2nnc(SCCC3OCCCO3)o2)cc1	-1.6	0.71	·	·	·	·	-8	1	1.6
O=C(c1ccccc1)c1ccc2c(c1)OCCOCCOCCOCCO2	0.3	0.66	i	8	3	2.8	-5	-1	5.4
O=C(CSc1nc2c(c(=O)n1-c1ccccc1)SCC2)N1CCN(c2ccccc2)CC1	2.4	0.73	i	-2	5	-2.0	·	-4	9.8
O=C(COC(=O)CCC(=O)c1cccs1)Nc1ccc(S(=O)(=O)N2CCOCC2)cc1	0.5	0.72	·	·	·	·	-1	-2	4.2
Cc1cc2c(cc(C(=O)OC(C(=O)NCC3CCCO3)C(C)C)n2C)o1 (stereo unspecified)	-3.8	0.68	·	12	2	0.2	14	2	3.9
COc1ccc(C)cc1NC(=O)NCCCCc1ccccc1	1.4	0.74	i	1	-20	-2.4	2	-1	-0.5
CC(=O)Nc1ccc(S(=O)(=O)N2CCCN(S(=O)(=O)c3ccc(NC(C)=O)cc3)CC2)cc1	1.1	0.7	·	·	·	·	-12	-9	2.8
COc1cccc(-n2c(C)c(C(C)=O)c(C(C)=O)c2C)c1	-1.1	0.71	·	·	·	·	-5	-3	1.6
O=C(CSc1nnc(-c2ccncc2)n1-c1ccc(Cl)cc1)Nc1ccc(C(=O)O)cc1	-0.7	0.68	i	11	3	-2.3	-4	8	0.2
COc1ccccc1OCc1n[nH]c(=S)n1Cc1ccccc1	-1.4	0.71	i	-24	-22	3.6	46	6	3.4
Cc1ccc(C)c(Cn2cnc3c(oc4ccccc43)c2=O)c1	2.5	0.67	i	5	9	0.4	-19	1	3.5
Cc1ccccc1NC(=S)NC(=O)C1CCCCC1	-1.2	0.71	i	3	10	1.7	-14	-2	3.0
CCn1c(=O)c2ccccc2n(Cc2ccccc2C)c1=O	1.7	0.66	i	2	-1	-1.0	0	4	2.7
CCCCN(C)CCNC(=O)C1CCCN(S(=O)(=O)c2cccc3nsnc23)C1 (stereo unspecified)	-1.0	·	i	14	6	0.7	-1	-7	·
C=CCn1c(C)cc(C(=O)CSc2nnc(NC(C)C)s2)c1C	-7.3	0.76	·	·	·	·	5	11	-5.3
COCCN(CCOC)Cc1cc(=O)oc2cc(C)c(Cl)cc12	0.1	·	i	-4	-16	5.1	·	·	·
Oc1ccccc1-c1nnc(SCCN2CCOCC2)n1Cc1ccccc1	-17	0.69	·	·	·	·	22	-6	0.6
